NPR1 antag = antagonists of human natriuretic peptide receptor Npr1; HEK293 hNpr1 GloSensor cGMP, ANP-stimulated luminescence; P16066; AID 1347048; Potency, µM (series often up to 46.3 µM), without a hit: top-dose activity change, negative = inhibition, hits mostly inhibitors; actives 1.6% (n = 76,000); active = well fitted inhibition curve with a large enough effect; inconclusive = small, poorly fitted or top-dose-only effect; inactive = no such curve, though single readings can be large or run the other way;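 further: nearly all actives have a fitted effect of over 60% in size; nearly all hits also lower the signal before the agonist is added; a reference antagonist and vehicle were the controls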
Target sequence (P16066 whole entry, looked up): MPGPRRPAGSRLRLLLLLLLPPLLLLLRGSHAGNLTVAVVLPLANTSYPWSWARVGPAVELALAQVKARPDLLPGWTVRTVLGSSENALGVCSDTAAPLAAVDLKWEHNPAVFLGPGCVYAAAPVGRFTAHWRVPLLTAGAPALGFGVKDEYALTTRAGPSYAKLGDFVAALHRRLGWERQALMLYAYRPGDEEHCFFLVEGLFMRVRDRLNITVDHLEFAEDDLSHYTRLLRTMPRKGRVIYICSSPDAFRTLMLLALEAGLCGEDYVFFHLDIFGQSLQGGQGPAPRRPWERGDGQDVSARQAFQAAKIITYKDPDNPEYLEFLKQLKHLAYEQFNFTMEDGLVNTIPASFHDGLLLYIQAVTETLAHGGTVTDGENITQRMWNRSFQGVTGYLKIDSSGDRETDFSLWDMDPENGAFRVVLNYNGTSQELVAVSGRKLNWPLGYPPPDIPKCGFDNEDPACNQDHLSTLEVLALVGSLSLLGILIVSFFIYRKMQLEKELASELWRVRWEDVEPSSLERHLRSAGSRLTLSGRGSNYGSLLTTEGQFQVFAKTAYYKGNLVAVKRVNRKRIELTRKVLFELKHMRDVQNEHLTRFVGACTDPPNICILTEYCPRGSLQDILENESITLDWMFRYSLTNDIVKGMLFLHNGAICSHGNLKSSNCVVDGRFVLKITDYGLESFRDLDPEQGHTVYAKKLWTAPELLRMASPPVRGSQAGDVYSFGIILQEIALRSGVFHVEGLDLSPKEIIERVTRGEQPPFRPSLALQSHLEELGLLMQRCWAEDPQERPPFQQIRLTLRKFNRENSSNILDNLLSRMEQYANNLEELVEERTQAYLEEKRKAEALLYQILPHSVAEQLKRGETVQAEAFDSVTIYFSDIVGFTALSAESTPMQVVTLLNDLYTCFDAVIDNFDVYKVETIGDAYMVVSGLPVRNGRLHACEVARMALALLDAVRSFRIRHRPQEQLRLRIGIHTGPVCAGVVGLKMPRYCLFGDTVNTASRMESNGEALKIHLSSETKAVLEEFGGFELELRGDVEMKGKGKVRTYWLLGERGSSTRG
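HEK293 cells stably expressing human Npr1 and cGMP GloSensor pGS-40F, loaded 2 h with 2% GloSensor reagent, given compound 30 min at room temperature. Luminescence read before and 20 min after 0.1 nM hNppA.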
The depositor's hits bear a star; ? = inconclusive; [ ] = remark or other dose. On the % scale 0 is the no-effect control and ±100 the full control effect; potency means the concentration at half of the fitted maximal effect.

NPR1 antag | SMILES
-7% | COc1ccc(C(=O)N2CCC(N3C(=O)C(OC)C34CCOCC4)CC2)c(OC)c1 (configuration not stated)
0% | Cc1cc(Cl)ccc1OCC(=O)N1CCc2nn(C)c(=O)n2CC1
1% | COc1ccc(C(=O)NC(C(=O)NCC(C)C)C2CCN(C(=O)c3ccccc3C)CC2)cc1 (configuration not stated)
9% | CCn1ncc(CN2C[C@@H](COCC3CC3)[C@H](c3ccccn3)C2)c1C
7% | Cc1cnc(C(=O)N[C@@H]2CCC[C@@H]2C(=O)NC2CCCCCC2)cn1
-5% | COc1ccccc1C(=O)N1CCC(Oc2ccccc2)C1 (configuration not stated)
1%[70.6 µM] | Cc1noc2c(NCCCn3ccnc3)cc(-c3ccccn3)nc12
-12% | CCN1c2cc(C(=O)NCc3ccc(F)cc3)ccc2C(=O)N2CCCCC21 (configuration not stated)
-3% | CNC(=O)[C@@H]1CN(C(=O)CCc2cc(OC)no2)C[C@H]1c1n[nH]c(C)n1
6% | Cc1cnc(C(=O)N2C[C@H]3OC(=O)N(CCc4cccc(Cl)c4)[C@H]3C2)[nH]1
0% | CCCN1CCC2(CCN([S+](=O)([O-])c3cccc(OC)c3)CC2)Oc2ccccc21
-1% | COc1nc2c(cc1CNC(=O)c1cccnc1C)C(=O)N(C1CCCC1)C2
1%[70.6 µM] | O=C(NC[C@H]1OC[C@@H](NC2CCCC2)[C@@H]1O)c1ccccc1
-20% | Cc1cccc(OCC(=O)NC2CCN(c3cc(C(F)(F)F)ncn3)CC2)c1
2% | CCc1noc([C@@H]2CC(F)(F)CN2C(=O)c2ccoc2)n1
-20% | Cc1ccc(NC(=O)Cn2c(-c3cnccn3)nc(C)c(C)c2=O)cc1C
-14% | CC(C)(C)CC(=O)N1CCN2C(=O)c3cc(-c4ccc(Cl)cc4)ccc3NC(=O)[C@H]2C1
-10% | CC(C)NC(=O)CN1C(=O)NC2(CCC(C(C)(C)C)CC2)C1=O (configuration not stated)
2%[70.6 µM] | COC1CCN(c2cc(-c3cccnc3)nc3c(C)noc23)CC1
1% | COc1cccc(CNC(=O)N2CCC(Oc3ncccc3C(=O)N3CCCCC3)C2)c1 (configuration not stated)
-11%[70.6 µM] | COC(=O)[C@@H]1Cc2c([nH]c3ccccc23)[C@H]2C[C@H](NCCO)C[C@@H](c3ccccc3)N21
4% | O=C(c1cc(F)ccc1Cl)N1CCC2(CC1)N(c1ccccc1)C(=O)CS2(=O)=O
-1%[70.6 µM] | Cn1cc(-c2ccc(O)c(F)c2)c2nc(CN3CCOCC3)cn2c1=O
-1% | CCn1ccc(C(=O)N2CCC(c3nn(C)c4c3COCC4)CC2)n1
4% | Cc1noc(-c2ccccc2Cl)c1C(=O)NCCc1cccs1
-23%[70.6 µM] | O=C1COc2ccc(OCc3cncs3)nc2CN1Cc1ccc(F)cc1
3% | COCCOCC(=O)N1[C@@H]2CC[C@H]1CC(NC(=O)c1cnc(C)cn1)C2 (some centres not stated)
-6%[70.6 µM] | O=C([C@H]1C[C@@H](O)[C@H](O)[C@@H]2N=C(Nc3ccc(Cl)cc3)S[C@@H]21)N1CCOCC1
4% | CC(C)CC(=O)NC1CCN(c2ccc(F)cc2)C1=O (configuration not stated)
1% | COC(=O)CNC(=O)NCCc1ncc(C)n1C1CCCC1
? | O=c1ccc(N2CCC(NS(=O)(=O)c3ccc(Cl)s3)CC2)nn1CC1CC1
0% | Cc1ccc(C2Cn3nnc(-c4nc(-c5cccc(F)c5)no4)c3CO2)c(C)c1 (configuration not stated)
-3% | CNc1nccc(N2CCC(CC(=O)NCCCN3CCC(C)CC3)CC2)n1
-17% | Cc1ccccc1C(=O)N1CCC2(CC1)OCC(C(=O)N1CCCC1)N2C(=O)c1cccc(F)c1 (configuration not stated)
-14% | COc1cc(NC(=O)CN2CCCc3nc(C4CC4)ncc3C2=O)cc(OC)c1
1% | CCOc1ccccc1NC(=O)Cn1c(N2CCN(c3ccccc3)CC2)nc(C)cc1=O
-6% | O=C(CC1CCCC1)NC1CCN(C(=O)N2CC3CC(C2)[C@H]2CCCC(=O)N2C3)CC1 (some centres not stated)
? | O=C(NCc1ccc(F)c(Cl)c1)c1cc2n(n1)CC(c1ccc(Cl)cc1)OC2 (configuration not stated)
-6% | CCC(=O)N(C1CCOCC1)C1CCN(S(=O)(=O)c2ccc(CC)cc2)CC1
-8% | CCOc1ccc(C(=O)N2CCC3(CC2)CN(c2ncccn2)CC3CO)cc1 (configuration not stated)
2% | Cc1ccccc1S(=O)(=O)NCCc1noc(-c2cccnc2)n1
-8% | Cc1ccc(-n2c(C3CCN(C(=O)c4ccc(F)c(Cl)c4)CC3)n[nH]c2=O)cc1
0%[70.6 µM] | CN1CCOC[C@H]1c1ncc(-c2ccc(F)cc2F)[nH]1
2%[70.6 µM] | CN(Cc1ccccc1)C(=O)C[C@@H]1O[C@H](CNC(=O)C2CC2)[C@@H](O)[C@H]1O
2% | CN1CCC(NC[C@H]2O[C@@H](CO)[C@@H](O)[C@@H]2N(C)Cc2ccccc2)CC1
-12% | CN1C(=O)CS(=O)(=O)C12CCN(C(=O)COc1ccc(F)cc1)CC2
-5% | COc1ccc(C2(C(=O)NCc3cccnc3N3CCN(C)CC3)CC2)cc1
-1% | COc1ccc(CN2C(=O)[C@@H]3C[C@@H](CN3Cc3ccc(C(=O)O)cc3)Oc3ccccc32)cc1
-12% | COc1ccc(C)cc1NC(=O)Cn1ccn2nc(-c3ccccc3)c(CO)c2c1=O
5% | CN1CCN(c2nc3c(c(=O)[nH]2)CCN(Cc2ccc(C(F)(F)F)cc2)CC3)CC1
3% | COCC(=O)N[C@@H]1C[C@H](Cn2cc(CN3CCS(=O)(=O)CC3)nn2)[C@@H](O)[C@H]1O
-24% | CCOC(=O)C1CCN(C(=O)Cc2cccn2-c2cccc(Cl)c2)CC1
1% | Cc1noc(C)c1C(=O)N1CC(N(C)Cc2cccnc2)C1
3% | Cc1ccc(CNC(=O)Cn2ccn3nc4c(c3c2=O)CCCCC4)cc1
0% | CCN1C(=O)C2CC3(CCN(S(=O)(=O)c4cn(C)cn4)CC3)CN2C1=O (configuration not stated)
-1% | Cc1ccccc1CN1CCCC(CCNS(=O)(=O)C2CC2)C1 (configuration not stated)
-14% | CC(C)n1cc2cc(C(=O)N3CCCCC3)sc2c1
1% | CCC(=O)N1CCC(CC)(N2CCNCC2)C1 (configuration not stated)
-7%[70.6 µM] | CC1CCN([C@@H]2[C@H](O)[C@H](CO)O[C@@H]2CNC(=O)Nc2cccc(Cl)c2)CC1
-1%[70.6 µM] | Cc1nnc(-c2cc(C(=O)NCCc3ccccc3)ccn2)n1Cc1cccnc1

The list continues:
NPR1 antag | SMILES
2% | Cc1cccc(CN2CCCC(COc3ccccc3C(=O)N3CCOCC3)C2)c1 (configuration not stated)
2% | CN1C(=O)CC[C@]2(C(=O)NCc3cccc(C(F)(F)F)c3)CCCC[C@@H]12
0% | CN(Cc1ccccc1OCC(=O)O)CC1CCN(C)C1(C)C (configuration not stated)
? | O=C(CCc1ccccc1)N1CCCCCC1c1nnc(-c2ccccc2)o1 (configuration not stated)
? | CC(C)c1nc(C(=O)N2CCc3onc(-c4ccccc4F)c3C2)cs1
0% | CC1=C[C@@H](CN2CCN(c3ncccn3)CC2)[C@H](C(C)C)C[C@H]1Cc1nnc(Cc2c[nH]c3ccccc23)o1
6% | Cc1cnc(C(=O)N2[C@@H]3CC[C@H]2CC(NC(=O)c2ccc(F)cc2)C3)cn1 (some centres not stated)
0% | CS(=O)(=O)N1CCC(C2CCN(C(=O)Cc3ccc(Cl)cc3)C2)CC1 (configuration not stated)
-17% | COc1ccc(NC(=O)CN2C(=O)NC3(CCC(C(C)(C)C)CC3)C2=O)cc1 (configuration not stated)
1%[70.6 µM] | CC(C)NC(=O)N[C@H]1CCN2C(=O)c3cc(-c4ccc(Cl)cc4)ccc3NC(=O)[C@H]12
-19% | COc1cccc(-c2cc(C3CCN(C(=O)Nc4cc(C)cc(C)c4)CC3)[nH]n2)c1
2% | CN(C)C[C@@H]1CN(C2CCOCC2)C[C@H]1NC(=O)c1ccccc1C(F)(F)F
-16% | COc1ccc(NC(=O)C2CCN(C(=O)c3ncn4c3COC(c3ccc(F)cc3)C4)CC2)cc1 (configuration not stated)
28µM* | N#Cc1cccc(CN2CCOC[C@H]2c2ncc(-c3ccc(Cl)s3)[nH]2)c1
-3% | COc1ccccc1NC(=O)N1C[C@@H]2C[C@H](C1)c1c(-c3ccc(NC(C)=O)cc3)ccc(=O)n1C2
-1%[70.6 µM] | Cc1ccc(NC(=O)N[C@H]2C[C@@H](c3nc(-c4ccccn4)no3)N(C)C2)cc1
-1% | COc1ccc(CCNC(=O)c2c(C)noc2-c2cc(OC)cc(OC)c2)cc1
2% | COC(=O)c1ccccc1S(=O)(=O)N1CCN2C(=O)CNC(=O)C2C1 (configuration not stated)
0% | CCOC1CCOC2(CCN(C(=O)c3ccncc3)CC2)C1 (configuration not stated)
2% | O=C(COc1ccccc1)N[C@H]1CO[C@H]2[C@@H]1OC[C@@H]2n1nnnc1Oc1ccc(-n2cncn2)cc1
-13%[70.6 µM] | Cc1cc(F)ccc1OC1CN(C(=O)c2ccccc2)C1
-3% | COc1ccccc1N1CCN(c2ncccc2CNC(=O)C2CCCO2)CC1 (configuration not stated)
-13% | CCOc1ccccc1C1NC(=O)N(CC(=O)Nc2cccc(CC)c2)C2=C1C(=O)OC2 (configuration not stated)
-6%[70.6 µM] | CC[C@H]1CN(C(=O)C2CC2)CC[C@H]1CC(=O)N(C)CCC#N

Part of the list above, bar-delimited:
Molecule | NPR1 antag
COc1cccc(-c2cc(C3CCN(C(=O)Nc4cc(C)cc(C)c4)CC3)[nH]n2)c1 | -19%
CN(C)C[C@@H]1CN(C2CCOCC2)C[C@H]1NC(=O)c1ccccc1C(F)(F)F | 2%
COc1ccc(NC(=O)C2CCN(C(=O)c3ncn4c3COC(c3ccc(F)cc3)C4)CC2)cc1 (configuration not stated) | -16%
N#Cc1cccc(CN2CCOC[C@H]2c2ncc(-c3ccc(Cl)s3)[nH]2)c1 | 28µM*
COc1ccccc1NC(=O)N1C[C@@H]2C[C@H](C1)c1c(-c3ccc(NC(C)=O)cc3)ccc(=O)n1C2 | -3%
Cc1ccc(NC(=O)N[C@H]2C[C@@H](c3nc(-c4ccccn4)no3)N(C)C2)cc1 | -1%[70.6 µM]
COc1ccc(CCNC(=O)c2c(C)noc2-c2cc(OC)cc(OC)c2)cc1 | -1%
COC(=O)c1ccccc1S(=O)(=O)N1CCN2C(=O)CNC(=O)C2C1 (configuration not stated) | 2%
CCOC1CCOC2(CCN(C(=O)c3ccncc3)CC2)C1 (configuration not stated) | 0%
O=C(COc1ccccc1)N[C@H]1CO[C@H]2[C@@H]1OC[C@@H]2n1nnnc1Oc1ccc(-n2cncn2)cc1 | 2%
Cc1cc(F)ccc1OC1CN(C(=O)c2ccccc2)C1 | -13%[70.6 µM]
COc1ccccc1N1CCN(c2ncccc2CNC(=O)C2CCCO2)CC1 (configuration not stated) | -3%
CCOc1ccccc1C1NC(=O)N(CC(=O)Nc2cccc(CC)c2)C2=C1C(=O)OC2 (configuration not stated) | -13%
CC[C@H]1CN(C(=O)C2CC2)CC[C@H]1CC(=O)N(C)CCC#N | -6%[70.6 µM]

Going on with the list:
NPR1 antag | SMILES
-2% | CN1CCN(c2nc3c(s2)CN(C(=O)c2ccncc2)CC3)CC1
-9%[70.6 µM] | O=C(NCC1CC1)c1ccc2c(c1)C1(CCN(CC3CC3)C1)CN2Cc1ccccc1 (configuration not stated)
-8% | COc1cc(-c2onc(C)c2C(=O)NCCSC)cc(OC)c1OC
1%[70.6 µM] | COc1ccc(/C=C/c2ccc3c(c2)C(=O)N2CC[C@H](N)[C@H]2C(=O)N3)cc1
-2%[70.6 µM] | CC1(C(=O)NCc2cccnc2)CCc2cnc(NCc3ccccc3)nc21 (configuration not stated)
4%[70.6 µM] | CN1[C@@H](CCC(=O)N2CCOCC2)CNC(=O)[C@@H]2[C@H]1CCN2Cc1ncc[nH]1
-2% | CC(=O)Nc1ccc(S(=O)(=O)N[C@H]2CO[C@H]3[C@@H]2OC[C@H]3OC(=O)Nc2ccccc2)cc1
1% | COc1ccc(C(=O)N2CCC(C(=O)N3CCCCCCNC(=O)CC3)CC2)cn1
-3% | Cc1ccc(S(=O)(=O)N2CCC(CCC(=O)O)CC2)cc1
0% | Cc1cc(C)cc(NC(=O)c2ccc3c(c2)N(C)C2CCCCCN2C3=O)c1 (configuration not stated)
26%[70.6 µM] | O=C(NC1CC1)c1ccn2cncc2c1
2% | O=C(NCCC1=CCCCC1)c1cccnc1N1CC2CC(C1)[C@H]1CCCC(=O)N1C2 (some centres not stated)
6% | CCc1ccc(N2CC(c3noc(-c4ccc(OC)nc4)n3)CC2=O)cc1 (configuration not stated)
? | CCOc1ccc(CN2C[C@@H]3C(=O)N(Cc4ccc5c(c4)OCO5)C(=O)[C@@H]3C2)cc1
-16% | Cc1ccc(C)c(-c2cc3c(=O)n(CCNC(=O)c4ccc(N(C)C)cc4)ccn3n2)c1
-18%[70.6 µM] | c1cncc(-c2cc3c(cn2)CN(Cc2ccncc2)CCN3)c1
16µM* | COc1ccc(C2=NOC3(CCN([S+](=O)([O-])c4cccc(C(F)(F)F)c4)C3)C2)cc1 (configuration not stated)
4% | Cc1nc(C)c(C(=O)N2CCC3(CC2)CC(N(C2CC2)S(C)(=O)=O)CCO3)s1 (configuration not stated)
-2% | CCOC(=O)c1[nH]cnc1C(=O)N(CCO)Cc1nccn1C
3%[70.6 µM] | COCc1ccc2c(c1)c(OC(C)(C)C(=O)N1CC(O)C1)nn2Cc1ccccc1
9% | Cn1cc(C(=O)N2CCCC(c3nnnn3C)C2)cn1 (configuration not stated)

This is a subset, so the mix of outcomes need not match the whole.
